# Screens as filed in PubChem.
# VDR inh – blocks the human vitamin D receptor. P11473. VDR-SRC2-3 peptide fluorescence polarization, 2 h. Potency, µM, for inactives: max response, negative = inhibition, most hits filed as inhibitors. 400,000 tested, 0.93% active. AID 504847; active = well fitted inhibition curve with a large enough effect; inconclusive = small, poorly fitted or top-dose-only effect, or another doubt; inactive = no such curve, though single readings can be large or run the other way; note: series mostly up to about 120 µM
# Target sequence (P11473 whole entry, looked up): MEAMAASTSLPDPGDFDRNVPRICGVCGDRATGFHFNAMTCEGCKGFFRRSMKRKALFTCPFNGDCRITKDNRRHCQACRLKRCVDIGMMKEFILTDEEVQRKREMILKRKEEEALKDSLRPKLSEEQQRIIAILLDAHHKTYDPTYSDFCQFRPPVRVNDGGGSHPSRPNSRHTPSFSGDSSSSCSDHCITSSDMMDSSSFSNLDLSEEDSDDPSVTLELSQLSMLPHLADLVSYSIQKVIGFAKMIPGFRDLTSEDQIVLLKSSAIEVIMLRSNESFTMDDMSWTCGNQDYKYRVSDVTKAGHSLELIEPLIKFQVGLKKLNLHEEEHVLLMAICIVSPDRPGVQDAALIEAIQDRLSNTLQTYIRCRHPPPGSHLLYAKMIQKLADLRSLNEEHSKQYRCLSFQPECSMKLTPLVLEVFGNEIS
#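 After 23 nl compound addition and a short centrifugation, plates sat for 2 hours at ambient temperature; polarization of fluorescence then indicated loss of VDR binding to peptide SRC2-3.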
# * = called active by the depositor; ? = inconclusive. % is set by controls: 0 for no effect and ±100 for the full control effect; potency is the fitted concentration of half-maximal effect.
VDR inh	SMILES
2%	CC(C)(C)c1csc(N(CCC#N)CCC#N)n1
-13%	NCCCC[C@@H](C(=O)N1CCNCC1)n1cc(CN)nn1
7%	C/C(=C\c1ccccc1)C(=O)Nc1cc(C)on1
-6%	COc1ccc(-c2cc(C(F)(F)F)n3ncc(C(=O)N4CCc5ccccc5C4)c3n2)cc1
?	CCC(C)NC(=O)CC1Oc2ccc(Cl)cc2NC1=O (stereo unspecified)
8%	CCC(=O)NC(=S)Nc1cc(C(=O)O)ccc1OC
3%	CCCSC(=S)NC1CCS(=O)(=O)C1 (stereo unspecified)
12%	CCc1ccc(N2CC(C(=O)Nc3ccc4c(c3)OCCO4)CC2=O)cc1 (stereo unspecified)
6%	Cc1ccc(NC(=O)Nc2ccccc2OCc2cc(=O)n3ccccc3n2)c(Cl)c1
-2%	CSCCC(NC(=O)COc1ccccc1)C(=O)Nc1ccc(C)cc1 (stereo unspecified)
?	O=C(COC(=O)c1n[nH]c2ccccc12)Nc1ccccc1
89µM*	O=C(O)c1ccccc1CSc1nc2ccccc2s1
-1%	CCC1CCCCN1CC(=O)Nc1cc(C)nn1-c1nc(C)cc(C)n1 (stereo unspecified)
1%	COc1ccc2nc(N(Cc3cccnc3)C(=O)COc3ccccc3)sc2c1
-22%	COC(=O)[C@@]1(Cc2ccc(OC)cc2)[C@H]2c3cc(C(=O)N4CCCC4)n(Cc4c(CO)[nH]cc(C)c4=O)c3C[C@H]2CN1C(=O)c1ccccc1
-17%	COc1cc(N)c(Cl)cc1C(=O)OCC(=O)NCC1CCCO1 (stereo unspecified)
17%	Nc1n[nH]c(C2CC2)c1N=Nc1ccc(Cl)c(Cl)c1
-2%	Cc1ccc(OC(=O)c2oc3ccc(F)cc3c2C)c(C)c1
-2%	O=C(NCc1ccc(Cl)cc1)C1CCC(CNc2c(N3CCCC3)c(=O)c2=O)CC1 (stereo unspecified)
12%	CC1CCCN(CCCNC(=O)CN2C(=O)COc3ccc(S(=O)(=O)N4CCOCC4)cc32)C1 (stereo unspecified)
?	CS(=O)(=O)c1sc2nc(-c3cccs3)cc(-c3ccccc3)c2c1N
-19%	COc1ccc2oc(=O)c(/C(C)=N/Nc3nc(-c4cc(C)ccc4C)cs3)cc2c1
?	O=C(c1ccc(Cl)cc1)n1cnc2ccccc21
-1%	CC(CNC(=O)C(C)(C)C)NC(=O)C(C)(C)C (stereo unspecified)
7%	Cc1ccc(OCc2nnc(SCC(=O)N3CCc4ccccc43)n2C)cc1
-23%	COc1ccc(/C=C(\NC(=O)c2cccs2)C(=O)NC(C)(C)C)cc1OC
-7%	Cc1ccc(C2CC(c3cccc(Br)c3)Nc3nnnn32)cc1 (stereo unspecified)
9%	CC(C)CC(NC(=O)OC(C)(C)C)C(=O)O (stereo unspecified)
13%	Cc1ccc(-c2noc(-c3ccc(N4CCC(C)CC4)c([N+](=O)[O-])c3)n2)cc1
2%	O=C(CC(=O)N/N=C\c1ccc([N+](=O)[O-])cc1)NCCc1ccccc1
-5%	C/C=C/C(=O)Nc1nnc(C2CCCCC2)s1
-9%	CSc1sc(C(=O)N2CCc3ccccc32)cc1S(=O)(=O)C(C)C
6%	COc1ccc(S(=O)(=O)Nc2c(C)n(C)n(-c3ccccc3)c2=O)cc1C(=O)O
-16%	Cn1c(CNc2nc(-c3ccccc3)cs2)nnc1SCC(=O)c1ccccc1
7%	CC1CCCC(C)N1C(=O)CSc1nnc(NC(=O)c2cccs2)s1 (stereo unspecified)
-10%	COC(=O)c1ccc(OCC(=O)NC2CCCCCC2)cc1
-7%	COc1ccc(OC(=O)c2cnc3n(c2=O)CCS3)cc1
-14%	Cc1ccnc(NS(=O)(=O)c2ccc(NC(=O)c3ccc4c(c3)OCCO4)cc2)n1
2%	COc1ccccc1N1CCN(S(=O)(=O)c2ccc(F)cc2)CC1
-1%	COc1ccc(C(c2nnnn2Cc2cccs2)N2CCC(C(N)=O)CC2)c(OC)c1 (stereo unspecified)
2%	C=CCn1c(O)c(C=Nc2ccc(CN3CCCCC3)cc2)c(=O)[nH]c1=S
-7%	Nc1ccc(C(=O)OCc2csc(-c3ccccc3)n2)cc1[N+](=O)[O-]
12%	CCCC(C(=O)Nc1cc(C)c(Cl)cc1OC)N1Cc2ccccc2C1=O (stereo unspecified)
-2%	Cc1cc(-c2nc(C)c(C(=O)NN)s2)no1
-11%	Cn1c(SCC(=O)NNC(=O)c2ccccc2)nnc1C(F)(F)F
-24%	CCOc1ccc(C(c2c(O)cc(C)n(Cc3ccco3)c2=O)N2CCN(C)CC2)cc1 (stereo unspecified)
3%	COc1ccc(/C=N/NC(=O)C(=O)N2CCCCCC2)cc1[N+](=O)[O-]
6%	CN(CC(=O)Nc1cccc(F)c1)CC(=O)Nc1ccccc1[N+](=O)[O-]
9%	COc1ccccc1NC(=O)C(C)OC(=O)CCCOc1ccccc1 (stereo unspecified)
-16%	O=C(COC(=O)c1cccc(OC(F)F)c1)Nc1cccc(S(=O)(=O)N2CCCC2)c1

# With a hit mark in VDR inh (from the list above):
VDR inh	SMILES
89µM*	O=C(O)c1ccccc1CSc1nc2ccccc2s1

# 4 entries from above, as labelled records:
O=C(CC(=O)N/N=C\c1ccc([N+](=O)[O-])cc1)NCCc1ccccc1
  VDR inh = 2%
C/C=C/C(=O)Nc1nnc(C2CCCCC2)s1
  VDR inh = -5%
CSc1sc(C(=O)N2CCc3ccccc32)cc1S(=O)(=O)C(C)C
  VDR inh = -9%
COc1ccc(S(=O)(=O)Nc2c(C)n(C)n(-c3ccccc3)c2=O)cc1C(=O)O
  VDR inh = 6%

# Continuation.
VDR inh	SMILES
-17%	Cc1ccc2cccc(S(=O)(=O)NC3CCS(=O)(=O)C3)c2n1 (stereo unspecified)
-18%	CCC(=O)Nc1ccc(C(=O)CN2C(=O)NC3(CCOc4ccccc43)C2=O)cc1 (stereo unspecified)
7%	COc1ccc(C(=S)N2CCCC2)cc1C
-8%	C=C(NC(C)=O)c1c(F)cccc1F
3%	O=C(c1ccc(Cl)cc1)N1CCC(C(=O)N2CCCc3ccccc32)CC1
15%	COc1ccc(CC(=O)O/N=C(\N)Cc2ccc(OC)cc2)cc1
-24%	N#CCOC(=O)C1CSC2(c3ccc(Br)cc3)CCC(=O)N12 (stereo unspecified)
-1%	CN(C(=O)CN1C(=O)c2cccc(N)c2C1=O)C1CCCCC1
-7%	Cc1ccc2cc(CCNS(=O)(=O)c3ccc(Br)cc3)c(=O)[nH]c2c1C
-4%	COC(=O)c1ccc(NC(=O)Cn2cnc3c(nnn3-c3cccc(OC)c3)c2=O)cc1
4%	COc1ccc(C(=O)/C=C(\C)Nc2ccc3c(c2)OCO3)cc1
-2%	CCN(CC)S(=O)(=O)c1cccc(C(=O)N2CC(O)CC2C(=O)O)c1 (stereo unspecified)
-12%	O=C1COc2ccc(C(=O)NC3CC3)cc2N1
4%	COc1cccc2cc(C(=O)NCc3ccco3)c(=O)oc12
-15%	Cc1cc(Nc2ccc(C(=O)O)cc2)nc(N)n1
-13%	COc1ccccc1-n1cc(-c2ccc(C)cc2)[nH]c1=S
-5%	COc1ccc(NS(=O)(=O)c2cc(C(=O)N3CCCCCC3)ccc2C)cc1
-19%	CCN1C(=O)[C@H]2[C@H]3CN=C(SCc4ccc(C)cc4)N3[C@@](CC)(C(=O)OC)[C@H]2C1=O
1%	CC(=NNC(=O)c1cc(C)oc1C)c1ccc(Br)s1
4%	CCCCn1nnnc1SCC(=O)NNC(=O)C1CCCCC1
-12%	COCCOc1cc(NCc2ccccc2)c2ncn(C(C)C)c2c1
2%	COc1ccc(C(=O)NCC(=O)N/N=C/c2ccc([N+](=O)[O-])s2)cc1OC
-5%	CN1CCCC(OC(=O)c2cc(Cl)ccc2Cl)C1 (stereo unspecified)
-8%	C#CCOc1ccc(/C=N/O)cc1Cl
?	O=C(CCCSc1ccc(Cl)cc1)Nc1cc(S(=O)(=O)N2CCOCC2)ccc1O
-15%	CC(=O)Nc1cccc(NC(=O)C2CC(=O)N(c3ccc(C)cc3)C2)c1 (stereo unspecified)
-12%	Cc1nc(NC(=O)c2cccc(Cl)c2)sc1C(=O)N1CCCCC1
19%	CC(C)c1nn2c(=O)cc(COC(=O)c3ccc(NC(=O)c4ccccc4Cl)cc3)nc2s1
-8%	O=C(NCc1ccco1)c1ccc(S(=O)(=O)N2CCOCC2)cc1
0%	Cc1nn(CCOc2cccc(Cl)c2)c(C)c1[N+](=O)[O-]
1%	CC(=O)/C(=N/Nc1cccc(C)c1)N1CCOCC1
-8%	CN(C)S(=O)(=O)c1ccc(/C(O)=C2/C(=O)C(=O)N(CCN3CCCCC3)C2c2cccnc2)cc1 (stereo unspecified)
10%	COc1cc(OC)cc(C(=O)N2CCN(Cc3cccc(F)c3)CC2)c1
-17%	Cc1c(C(=O)O)cccc1N1C(=O)Nc2ccccc2N1O
-11%	CC(=O)Nc1ccc(Nc2nc3c(S(=O)(=O)c4ccc(C)c(C)c4)nnn3c3ccccc23)cc1
0%	CC(CCc1ccccn1)(CCc1ccccn1)C(=O)c1ccccc1
-4%	COc1cccc(NC(=O)CN(C)C(=O)c2sc3cc(Cl)ccc3c2Cl)c1
-12%	CCOC(=O)c1ccc(N2C(=O)c3n[nH]c(-c4cccs4)c3C2c2ccc(C(C)(C)C)cc2)cc1 (stereo unspecified)
1%	O=C(Nc1ccc2cn[nH]c2c1)c1c(Cl)cccc1Cl
-18%	COc1ccc(-n2c(-c3ccc(Br)cc3)n[nH]c2=S)cc1
6%	Cc1nn(-c2cc(N3CCCCC3)ccc2[N+](=O)[O-])c(=O)c2ccccc12
-10%	O=C(COc1ccccc1Cl)Nc1ccc(NC(=O)c2ccco2)cc1
4%	Cn1c(CN2CCOCC2)nnc1SCC(=O)NCCc1ccccc1
-10%	O=C(Cn1c(=O)cnc2ccccc21)Nc1cccc(S(=O)(=O)N2CCCCC2)c1
-2%	COc1cccc(CN2C(=O)C(C)Oc3ccccc32)c1 (stereo unspecified)
6%	COc1ccc(OC)c(NC(=O)C2C3C=CC(C3)C2C(=O)NCc2ccccn2)c1 (stereo unspecified)
-7%	CC12CCC(C1)C(C)(C)C2NS(=O)(=O)c1ccc(F)cc1 (stereo unspecified)
2%	COc1ccc(C(=O)Nc2ccc(-n3nncc3-c3ccc(OC)c(OC)c3)cc2)cc1
12%	CC(C)(C)NC(=O)NC(=O)COC(=O)COc1ccc2c(c1)CCC2
1%	COc1cc(CC(=O)OCC(=O)Nc2sccc2C(N)=O)cc(OC)c1OC

# Three of these compounds, reformatted.
SMILES	VDR inh
CC(C)(C)NC(=O)NC(=O)COC(=O)COc1ccc2c(c1)CCC2	12%
CC12CCC(C1)C(C)(C)C2NS(=O)(=O)c1ccc(F)cc1 (stereo unspecified)	-7%
Cc1nc(NC(=O)c2cccc(Cl)c2)sc1C(=O)N1CCCCC1	-12%

# Following part:
VDR inh	SMILES
3%	CCOc1ccc(C(c2c(O)cc(C)n(CCOC)c2=O)N2CCC(C)CC2)cc1 (stereo unspecified)
-7%	Cc1cccc(/C=N/n2c(-c3ccncc3)n[nH]c2=S)c1
19%	Cc1nc(NCC(c2ccccc2)N(C)C)c2c(C)c(C)sc2n1 (stereo unspecified)
-8%	CC(C)(C)C(=O)Cn1ncc(N2CCOCC2)c(Br)c1=O
6%	CCCC(C)C(=O)NCc1ccncc1 (stereo unspecified)
-9%	O=c1[nH]c(CN2CCN(S(=O)(=O)c3cccs3)CC2)nc2c(Br)cc(Br)cc12
17%	O=C(Nc1ccc(F)cc1)c1sccc1SCc1cccc(C(F)(F)F)c1
-1%	Cc1ccc(CNCCCSc2ncccn2)cc1
-17%	COc1ccc(S(=O)(=O)N2CCCC(C(=O)O)C2)cc1Cl (stereo unspecified)
79µM*	CCN(CC)S(=O)(=O)c1cc(NC(=O)c2ccc3c(c2)NC(=O)C(C)S3)ccc1C (stereo unspecified)
-8%	COC(=O)c1ccc(C(=O)OC)c(NC(=O)COC(=O)CC2CC3CCC2C3)c1 (stereo unspecified)
7%	Cc1cccc(COc2ccccc2C(=O)NC2CCC(O)CC2)c1 (stereo unspecified)
8%	CCOc1ccc2cc(S(=O)(=O)n3ccnc3C)ccc2c1
-4%	Cc1ccc(-c2nc(-c3cc4cccc(OCc5cccc(F)c5)c4oc3=O)no2)cc1
2%	CS(=O)(=O)Nc1ccccc1C(=O)NCc1ccco1
-1%	CCCCn1c(N)c(N(CC)C(=O)c2cccc(OCc3ccccc3)c2)c(=O)[nH]c1=O
-11%	COc1ccc(-n2cnc3cc(C(=O)NCCN4CCOCC4)ccc32)cc1
6%	CC(=O)C1=C(O)C(=O)N(c2ccc(O)cc2)C1c1ccccc1F (stereo unspecified)
-22%	CCCOc1cccc(/C=N/NC(=O)c2csc(C)c2C)c1

# A portion of the library, so the mix of outcomes need not match the whole.
